eIF4H FP inh = inhibitors of RNA binding by human eIF4H | Q15056 | eIF4H fluorescence polarization binding assay | inhibition, % at 35 µM | 290,000 compounds, 0.94% hits | AID 2012;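 active = 50% or more with normal probe brightness, or confirmed in later tests; inconclusive = above 50% with abnormal brightness, or retests that disagree; inactive = below 50% or failed in later tests; about a fifth of its hits are not listed in these tables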;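 note: calls also rest on retests at 20 µM and on dose response follow-up; 0% = protein and probe with vehicle and 100% = probe without protein; strong numbers were not always called active; many hits fall short of the cut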
CSC inhib = blocks cancer stem cells | cancer stem cell-like cells viability, luminescence | inhibition, % at 7.5 µM | 300,000 compounds, 1.1% hits;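 active = mean at 75% or more and at least half the replicates too; inconclusive = mean and replicates disagree; tested in HMLE shEcad cells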;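 note: 0% = median of negative and 100% = median of positive control wells; the first replicate is given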
UUG fidelity = modulators of start codon recognition fidelity in yeast | 350,000 compounds, 0.13% hits | AID 602363 | S. cerevisiae UUG-firefly luciferase reporter, luminescence/redox ratio | activity score, % at 18.7 µM;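 active = replicate mean at a twofold rise or more, about +100% in these data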;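 note: firefly luciferase made from a UUG start codon reports start codon fidelity; reporter light over untreated wells divided by growth signal over untreated wells; some hits fall short of that in this replicate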
Env fusion inh = inhibitors of HIV Env-mediated cell fusion; HeLa-JRFL Env/CEM21 cell fusion, luciferase; inhibition, % at 12.3 µM; 360,000 compounds, 1.1% hits; AID 651610;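 active = mean replicate inhibition score of at least 50 and every replicate individually at or above 50; inconclusive = only one of the two criteria met; inactive = mean below 50 and not all replicates reaching 50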;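 note: 0% = plate neutral controls and 100% = maraviroc near 300 nM; one replicate is shown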
PABP FP inh = blocks human PABP binding to poly(A) RNA; fluorescence polarization; inhibition, % at 35 µM; 290,000 compounds, 1% hits;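 active = 50% or more with normal probe brightness, or confirmed in later tests; inconclusive = above 50% with abnormal brightness, or retests that disagree; inactive = below 50% or failed in later tests; about a fifth of its hits are not listed in these tables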;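 note: calls also rest on retests at 20 µM and on dose response follow-up; controls were probe without protein and protein plus probe with vehicle; some compounds called inactive have numbers as strong as hits; many hits fall short of the cut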
Target sequence (P11940 whole entry, looked up): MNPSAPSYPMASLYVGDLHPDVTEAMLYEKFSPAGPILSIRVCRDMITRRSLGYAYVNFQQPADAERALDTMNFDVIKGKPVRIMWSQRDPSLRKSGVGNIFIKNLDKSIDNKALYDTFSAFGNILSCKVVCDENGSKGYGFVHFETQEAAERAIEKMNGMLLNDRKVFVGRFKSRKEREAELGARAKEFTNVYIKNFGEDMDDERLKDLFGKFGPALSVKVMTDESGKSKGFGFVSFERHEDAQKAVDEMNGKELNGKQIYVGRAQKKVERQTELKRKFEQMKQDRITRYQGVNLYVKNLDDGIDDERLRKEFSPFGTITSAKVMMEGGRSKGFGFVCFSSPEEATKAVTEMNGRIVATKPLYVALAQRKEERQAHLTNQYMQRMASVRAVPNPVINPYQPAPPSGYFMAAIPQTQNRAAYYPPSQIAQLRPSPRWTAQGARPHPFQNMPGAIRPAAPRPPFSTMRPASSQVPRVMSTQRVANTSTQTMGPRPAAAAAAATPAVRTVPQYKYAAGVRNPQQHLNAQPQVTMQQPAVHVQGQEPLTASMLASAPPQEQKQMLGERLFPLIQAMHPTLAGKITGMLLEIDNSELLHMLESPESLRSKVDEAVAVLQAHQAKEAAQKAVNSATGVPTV
Rce1 inhib = yeast Ras-converting enzyme inhibition; AID 2563; yeast membranes, quenched prenylated peptide cleavage fluorescence; Q03530; calls only; 290,000 compounds, 0.27% hits;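 active = fall in fluorescence gain of 50% or more versus controls, with final raw signal at or below 3038400; inconclusive = same 50% fall but final raw signal above 3038400; inactive = fall in fluorescence gain under 50%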;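 note: plate controls were neutral control wells for no effect and wells lacking membranes for full effect; tested at 10 µM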
Target sequence (Q03530 whole entry, looked up): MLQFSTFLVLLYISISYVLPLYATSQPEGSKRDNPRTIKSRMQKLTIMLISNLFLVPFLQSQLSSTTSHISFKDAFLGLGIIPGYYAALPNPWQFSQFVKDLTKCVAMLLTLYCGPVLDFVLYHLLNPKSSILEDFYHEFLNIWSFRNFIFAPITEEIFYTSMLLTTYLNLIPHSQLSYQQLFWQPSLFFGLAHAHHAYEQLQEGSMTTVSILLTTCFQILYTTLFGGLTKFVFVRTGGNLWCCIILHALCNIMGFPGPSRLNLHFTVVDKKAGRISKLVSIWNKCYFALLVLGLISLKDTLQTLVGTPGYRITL
MT1-MMP act inh = blocks activation of human MT1-MMP. 360,000 compounds, 0.061% hits. GFP/RFP ratio change, % at 20 µM. P50281. HT1080 RFP-PRO-GFP cells, GFP/RFP ratio fluorescence, overnight; percent of plate control window, DMSO zero. AID 651647;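 active = GFP/RFP ratio change of at least 30% with cell ATP level not reduced by more than half and red fluorescence within 50% of control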; note: strong numbers were not always called active
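Test system: HT1080 RFP-PRO-GFP cells; Benchmarks: DMSO and RFP-L50D-GFP cell wells; Timing: cells overnight before dosing, compound overnight, 37 °C, 5% CO2; Compound: one 20 µM compound dose with 1% DMSO; Read-out: GFP/RFP fluorescence ratio.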
eIF4H FP inh retest = recorded beside eIF4H FP inh, whose call it bears; inhibition, %; compound at 20 µM; confirmation average;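 mean of two retest wells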
PABP FP inh retest = second read-out of PABP FP inh, no call of its own (marks repeat the call); inhibition, %; compound at 20 µM; confirmation repeats;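 mean of two retest wells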
MT1-MMP act inh RFP = second read-out of MT1-MMP act inh, no call of its own (marks repeat the call); RFP signal change, %; measured here: RFP expression control read;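 0 = vehicle wells; hits needed this value within 50% of zero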
The depositor's hits bear a star; i = inactive; u = inconclusive; x = no result given; & = joins results of further samples.

SMILES	eIF4H FP inh	CSC inhib	UUG fidelity	Env fusion inh	PABP FP inh	Rce1 inhib	MT1-MMP act inh	MT1-MMP act inh RFP	others
CC(C)(C)OC(=O)CN1C(=O)NC2(CCCc3ccccc32)C1=O (stereo unspecified)	-7	-20	2	9	-14	i	-5	-3
COc1ccc2cc3c(N)nn(C(=O)c4ccc(Cl)c([N+](=O)[O-])c4)c3nc2c1	-19	-5	-13	24	19	i	-14	-10
O=C(COC(=O)/C=C/c1ccc(OC(F)F)cc1)Nc1cccc(S(=O)(=O)N2CCOCC2)c1	x	-12	6	u	x	x	-1	5
CC(C)c1ccc(OCC(O)CNC(C)c2ccccc2)cc1 (stereo unspecified)	2	30	2	31	11	i	3	5
O=C(OCC(=O)N1CCOCC1)c1cccc(S(=O)(=O)Nc2ccc(F)cc2)c1	x	-13	-8	x	x	x	4	-5
CCOC(=O)C1CCCN(C(=O)c2cccs2)C1 (stereo unspecified)	-7	-14	-21	-189	-3	i	-1	7
Cc1cc(N2C(=O)NC(=O)CC2C)c(C)cc1C(C)C (stereo unspecified)	-2	-7	-14	x	8	i	-2	-1
Cc1ccc2c(C)nc(Nc3nc(CSc4nc5ccccc5[nH]4)cc(=O)[nH]3)nc2c1	-2	61	-14	x	-8	x	12	-16
COc1ccc(C(=O)Nc2ccc3oc(-c4cccc(F)c4)nc3c2)cc1OC	2	6	-18	5	1	i	2	2
Cc1cc(NC(=O)C2CC(=O)N(c3ccc(Cl)cc3)C2)no1 (stereo unspecified)	2	12	1	-4	0	i	-1	-1
CC(C)CCC1(C)NC(=O)N(CC(=O)NCC(=O)Nc2ccc(F)c(F)c2F)C1=O (stereo unspecified)	x	-11	-12	-3	x	x	-2	-1
Cn1c(N)c(C(=O)COC(=O)CSc2cccc3cccc(Cl)c23)c(=O)n(C)c1=O	4	-4	x	6	-1	i	-4	-4
CCN1C[C@@H]2[C@@H]3C(=O)N(C)C(=O)[C@@H]3[C@](C)(C1=O)N2C(=O)c1ccccc1	x	x	3	-17	x	x	0	5
COc1ccc(-c2ccc3c(N)c(C(=O)c4cccc(OC)c4)sc3n2)cc1	18	10	-20	-36	4	i	-98	-1
CCc1ccc(CN2CCC(n3nccc3NC(=O)c3ccccc3OC)CC2)o1	x	x	0	-2	x	x	1	0
Cc1ccccc1-c1nnc(NC(=O)c2ccc(N3C(=O)CCC3=O)cc2)s1	-10	-4	4	-5	-4	i	-1	-3
COc1ccc(C)cc1Nc1n[n+](-c2ccccc2)c(-c2c(Cl)cccc2Cl)s1	-11	74	x	u	-10	i	x	x
CN(CC1COc2ccccc2O1)C(=O)CCNS(=O)(=O)c1ccc(F)c(Cl)c1 (stereo unspecified)	x	x	-2	14	x	x	1	0
Cc1cc(Nc2cccc(C)c2C)n2nc(C)nc2n1	8	-17	-12	-3	14	i	9	5
CCOC(=O)c1c(NC(=O)c2ccccc2)sc2c1CCc1ccccc1-2	8	32	4	-17	13	i	0	3
CCn1c(SCC(=O)Nc2ccc(OC)cc2)nc2c(c1=O)SCC2	22	-10	-20	12	-2	i	0	2
C(=NN1CCCCCC1)c1cccc2ccccc12	x	x	-17	-14	x	x	-1	5
CCN(CC)C(=O)CC(c1ccc(N(C)C)cc1)c1c(OC)cc(OC)c2ccc(=O)oc12 (stereo unspecified)	8	-4	-12	-4	-2	i	3	0
O=C(CNS(=O)(=O)c1ccc(Br)s1)NCc1ccccc1	2	-16	-18	9	-7	i	-1	0
Cc1noc(C)c1COc1ccccc1C(=O)NNC(=O)c1ccccc1F	x	x	-16	-20	x	x	4	2
Continued.
SMILES	eIF4H FP inh	CSC inhib	UUG fidelity	Env fusion inh	PABP FP inh	Rce1 inhib	MT1-MMP act inh	MT1-MMP act inh RFP	others
COCCn1c(C)cc(/C=C2/NC(=O)N(Cc3ccc(C)cc3)C2=O)c1C	7	-6	x	18	3	i	-5	-4
COC(=O)Nc1ccc(S(=O)(=O)NC2CCS(=O)(=O)C2)cc1 (stereo unspecified)	-9	-5	-10	-9	-19	i	-1	-1
O=C(CSC1=NC2(CCCCC2)N=C1c1ccccc1)Nc1ccc2c(c1)OCCO2	u	-12	-18	29	u	i	1	-1
COc1ccc(/C=N/n2c(C3CCCCC3)n[nH]c2=S)c(OC)c1	3	-11	-15	13	0	i	-5	-2
Cc1cccc(N2CCN(C(=O)CCNC(=O)Cn3ccc4ccccc4c3=O)CC2)c1C	-3	5	10	24	7	i	-1	-7
O=C(/C(=C/c1ccc(Cl)cc1)c1nc2ccccc2[nH]1)c1cccs1	-3	93*	x	x	7	i	-26	-8
CN(C)CC(=O)Nc1ccc2c(c1)[C@H]1C[C@H](CC(=O)NCc3ccc4c(c3)OCO4)O[C@H](CO)[C@H]1O2	x	x	0&-3	2	x	x	3	1
O=C(CSc1nnc(-c2cccnc2)o1)NNC(=O)c1ccc(Br)cc1	19	-4	x	15	-4	i	-4	-4
COc1ccc(NC(=O)N(Cc2cccnc2)Cc2ccccc2Cl)c(OC)c1	x	x	-1	x	x	i	4	0
COC(=O)[C@@]12CCCN1[C@H](c1ccc(-c3ccc(OC)cc3)c(OC)c1)[C@@H]1C(=O)N(C)C(=O)[C@@H]12	x	-10	-8	-2	x	x	-5	-4
Cc1ccc(C)c(NC(=O)COC(=O)CSc2ccccc2)c1	x	x	-20	-6	x	x	1	0
CCCCNS(=O)(=O)c1ccc(NC(=O)c2cccs2)cc1	2	-2	-18	22	-5	i	5	-1
COc1cccc(N2CCN(C3CC(=O)N(c4ccc(Cl)c(Cl)c4)C3=O)CC2)c1 (stereo unspecified)	-1	-9	-12	-14	6	i	4	-3
COc1ccc(CCC(=O)NCc2ccccc2Cl)cc1OC	6	-12	-8	3	14	i	-1	-3
O=Cc1ccc(OCC(=O)Nc2ccccc2-c2ccccc2)cc1	-18	0	x	15	-7	i	-6	-6
CC(/C=N/n1c(-c2ccccc2)n[nH]c1=S)=C\c1ccco1	36	-5	x	x	4	i	1	1
Cc1ccc(-n2nc3c4c(cccc4c2=O)-c2ccccc2-3)cc1	-4	2	-18	30	-5	i	-2	-1
CCCN=C1N/C(=C\c2ccco2)C(=O)N1c1ccccc1	126	-8	10	x	120	i	-6	2	eIF4H FP inh retest=3;PABP FP inh retest=-5
CCOC(=O)C1C(O)=CC(=O)CC1c1ccccc1 (stereo unspecified)	x	4	-4	-20	x	i	2	5
COC(=O)c1ccc(CN2CCC(n3nccc3NC(=O)C3CC3)CC2)cc1	8	-2	-15	-21	5	i	-2	1
O=C(CSc1nc2nn(-c3ccccc3)c(=O)c-2c2n1CCCCC2)NCCCc1ccccc1	1	-16	-6	6	-3	i	1	0
CCC(CC)C(=O)NCc1ccc(Cl)cc1	-11	1	-15	27	3	i	-3	1
CC(=O)c1ccc(N2CCN(C(=O)c3ccc4c(=O)n(-c5ccccc5)c(=O)[nH]c4c3)CC2)cc1	1	0	-4	38	9	i	3	-8
Cc1cccc(NC(=S)N2CCCC(c3nc4ccccc4[nH]3)C2)c1 (stereo unspecified)	-1	-19	-31	3	17	x	7	4
Cc1ccccc1C(=O)NC1CCN(CC(=O)Nc2ccccc2)CC1	-1	-9	-10	4	2	i	0	0
Additional records
SMILES	eIF4H FP inh	CSC inhib	UUG fidelity	Env fusion inh	PABP FP inh	Rce1 inhib	MT1-MMP act inh	MT1-MMP act inh RFP	others
CC(C)(C)C(=O)NC(=S)Nc1ccccn1	2	5	-19	0	7	i	2	1
Cc1cccc(NC(=O)CSc2nc(C)c(CC(=O)c3ccc(Br)cc3)c(C)c2C#N)c1C	6	36	-22	x	-3	i	-16	-13
Cc1ccc(CN2C(=O)CC(Nc3ccc(N4CCOCC4)cc3)C2=O)cc1 (stereo unspecified)	-2	-19	-3	16	19	i	0	-1
O=C(N/N=C/c1ccco1)c1cc(Br)ccc1OCc1ccccc1	10	3	x	3	5	i	1	1
Oc1ccc(C[C@H]2CNC(=S)N2CC2CCCN2C[C@H](Cc2ccc(O)cc2)N2C[C@H](Cc3ccccc3)N(CC3CCCCCC3)C2=S)cc1 (stereo partly specified)	x	x	-18	61*	x	x	-3	-18
CC(C)(CC(=O)O)CC(=O)Nc1ccc(Oc2ccc(C(C)(C)C)cc2)nc1	4	8	-6	-4	16	i	5	1
COC(=O)C1=C(C)NC2=C(C(=O)CCC2)C1c1cccs1 (stereo unspecified)	10	x	x	x	2	i	x	x
C/C(=N\Nc1nc(N)cc(Cl)n1)c1ccc(F)cc1	-22	3	-20	-27	-14	i	-3	0
Cc1nc(-c2ccccc2)sc1-c1nnc(C2CC2)o1	-4	-6	x	-38	-9	i	-1	0
Cc1c(CN2CCC(CO)(CCOc3ccccc3)CC2)c(=O)n(-c2ccccc2)n1C	3	-8	4	-8	-5	i	4	2

Compounds shown so far with a Cl atom (11):
SMILES	eIF4H FP inh	CSC inhib	UUG fidelity	Env fusion inh	PABP FP inh	Rce1 inhib	MT1-MMP act inh	MT1-MMP act inh RFP	others
COc1ccc2cc3c(N)nn(C(=O)c4ccc(Cl)c([N+](=O)[O-])c4)c3nc2c1	-19	-5	-13	24	19	i	-14	-10
Cc1cc(NC(=O)C2CC(=O)N(c3ccc(Cl)cc3)C2)no1 (stereo unspecified)	2	12	1	-4	0	i	-1	-1
Cn1c(N)c(C(=O)COC(=O)CSc2cccc3cccc(Cl)c23)c(=O)n(C)c1=O	4	-4	x	6	-1	i	-4	-4
COc1ccc(C)cc1Nc1n[n+](-c2ccccc2)c(-c2c(Cl)cccc2Cl)s1	-11	74	x	u	-10	i	x	x
CN(CC1COc2ccccc2O1)C(=O)CCNS(=O)(=O)c1ccc(F)c(Cl)c1 (stereo unspecified)	x	x	-2	14	x	x	1	0
O=C(/C(=C/c1ccc(Cl)cc1)c1nc2ccccc2[nH]1)c1cccs1	-3	93*	x	x	7	i	-26	-8
COc1ccc(NC(=O)N(Cc2cccnc2)Cc2ccccc2Cl)c(OC)c1	x	x	-1	x	x	i	4	0
COc1cccc(N2CCN(C3CC(=O)N(c4ccc(Cl)c(Cl)c4)C3=O)CC2)c1 (stereo unspecified)	-1	-9	-12	-14	6	i	4	-3
COc1ccc(CCC(=O)NCc2ccccc2Cl)cc1OC	6	-12	-8	3	14	i	-1	-3
CCC(CC)C(=O)NCc1ccc(Cl)cc1	-11	1	-15	27	3	i	-3	1
C/C(=N\Nc1nc(N)cc(Cl)n1)c1ccc(F)cc1	-22	3	-20	-27	-14	i	-3	0

A portion from further up:
SMILES	eIF4H FP inh	CSC inhib	UUG fidelity	Env fusion inh	PABP FP inh	Rce1 inhib	MT1-MMP act inh	MT1-MMP act inh RFP	others
Cc1nc(-c2ccccc2)sc1-c1nnc(C2CC2)o1	-4	-6	x	-38	-9	i	-1	0
Cc1c(CN2CCC(CO)(CCOc3ccccc3)CC2)c(=O)n(-c2ccccc2)n1C	3	-8	4	-8	-5	i	4	2

Source: PubChem
